Ecoli rRNA inh = selective bacterial rRNA inhibition in E. coli. E. coli WT GFP vs humanized-ribosome RFP mutants, fluorescence, 24 h; active compounds read low; DMSO median 0, no signal -100. GFP signal change (wild-type ribosome), % (no concentration beside the values). actives 1.6% (n = 350,000). AID 720706;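 active means significant combined selectivity score with lowered wild-type GFP, culture density cut under 30%, mutant RFP and density less affected; inactive means any of these conditions unmet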; further: one replicate is shown; some compounds called inactive have numbers as strong as hits
Vif TR-FRET = HIV-1 Vif–A3G interaction blockers – biochemical, TR-FRET, GST-Vif 1-94, biotin-A3G peptide, dose response retest, primary screen (AID 1117319) | TR-FRET GST-Vif / biotin-A3G peptide binding; higher % means a stronger effect; test concentration not given here; strong numbers were not always called active | inhibition, %, or IC50 in µM where a hit was titrated | actives 0.57% (n = 260,000);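 active means above the screen mean plus three standard deviations and confirmed in dose response; inconclusive means results disagree or hit not tested in dose response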;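 further: Vif residues 1-94 fused to GST binding biotinylated APOBEC3G peptide 110-148; 0% = full assay without inhibitor and 100% = GST in place of GST-Vif; retest series ran down from 100 µM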
FGF22 binding = shifts melting point of recombinant human FGF22. calls only at 9.99 µM. recombinant FGF22 thermal shift, SYPRO orange fluorescence; percent of sucrose octasulfate shift, DMSO zero. actives 1.5% (n = 340,000). AID 651658;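 active means melting point raised past a set limit in the mean and every replicate; inconclusive means no clear call; three in four hits are not shown here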
Target sequence (Q9HCT0 whole entry, looked up): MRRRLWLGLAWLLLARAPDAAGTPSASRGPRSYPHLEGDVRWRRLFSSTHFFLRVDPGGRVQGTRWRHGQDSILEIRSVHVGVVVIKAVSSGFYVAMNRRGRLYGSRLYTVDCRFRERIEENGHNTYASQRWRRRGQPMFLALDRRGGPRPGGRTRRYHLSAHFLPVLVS
HNF4A DNA FP = change in binding of human HNF4 alpha to DNA. P41235. HNF4a-FITC DNA binding, fluorescence polarization, 1 h. activity change, % at 10 µM. actives 0.3% (n = 360,000). AID 1224865; in the data active means activity change above about 30%, passing the limit was not always enough;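 further: controls were the assay level and a saturating level of protein; the project sought stronger binding though the title names inhibitors; some compounds called inactive have numbers as strong as hits; positive values seem to mean higher polarization but the record does not say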
AF4-AF9 inh = MLL-AF4/AF9 protein interaction inhibition; AlphaScreen, biotin-AF4 peptide binding to FLAG-AF9; actives 0.47% (n = 350,000); inhibition, % at 10 µM; P42568;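 active means every replicate reaching a set inhibition limit, whatever the replicate mean, cut at about 25% in these data; inconclusive means mean inhibition reaches that limit but some replicates miss it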;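 further: 0% = plate neutral control median and 100% = total signal loss; the record names both 10 and 1 µM as test concentration; the first replicate is given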
Target sequence (P42568 whole entry, looked up): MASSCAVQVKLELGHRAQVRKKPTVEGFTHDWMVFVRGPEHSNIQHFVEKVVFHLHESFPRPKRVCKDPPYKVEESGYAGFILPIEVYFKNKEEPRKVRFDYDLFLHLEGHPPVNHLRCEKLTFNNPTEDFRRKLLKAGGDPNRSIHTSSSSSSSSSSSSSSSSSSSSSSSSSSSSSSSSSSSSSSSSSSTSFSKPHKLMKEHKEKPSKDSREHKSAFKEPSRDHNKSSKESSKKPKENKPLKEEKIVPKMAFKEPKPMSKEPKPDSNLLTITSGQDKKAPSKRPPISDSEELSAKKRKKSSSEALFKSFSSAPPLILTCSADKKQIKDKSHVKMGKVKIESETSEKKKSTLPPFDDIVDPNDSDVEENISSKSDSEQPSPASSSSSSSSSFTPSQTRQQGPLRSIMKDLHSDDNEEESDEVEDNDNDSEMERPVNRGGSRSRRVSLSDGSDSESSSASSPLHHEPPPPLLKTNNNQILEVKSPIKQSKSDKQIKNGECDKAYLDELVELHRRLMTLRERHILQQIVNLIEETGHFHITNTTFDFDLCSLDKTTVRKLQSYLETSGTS
Ecoli growth = blocks Escherichia coli growth; OD600, 23 h; active compounds read low; AID 1053175; actives 0.21% (n = 330,000); OD600 absorbance (no concentration beside the values);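 active means OD600 absorbance below the run mean of sample wells minus 3.6 SD, in any replicate, cut at about 0.56 in these data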;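 further: stock transfer was 300 nL into about 60 µL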
ALR inh = inhibitors of human sulfhydryl oxidase ALR | P55789 | inhibition, % (concentration not given with the values) | actives 3.8% (n = 290,000) | purified ALR, DTT oxidation, H2O2 HRP-luminol luminescence;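 active means mean and each replicate at 75% or more; inconclusive means only one of the two met; inactive means neither met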;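 further: stock transfer was 7.5 nL into about 7.5 µL; 0% = neutral wells and 100% = wells with inactivated enzyme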
Target sequence (P55789 whole entry, looked up): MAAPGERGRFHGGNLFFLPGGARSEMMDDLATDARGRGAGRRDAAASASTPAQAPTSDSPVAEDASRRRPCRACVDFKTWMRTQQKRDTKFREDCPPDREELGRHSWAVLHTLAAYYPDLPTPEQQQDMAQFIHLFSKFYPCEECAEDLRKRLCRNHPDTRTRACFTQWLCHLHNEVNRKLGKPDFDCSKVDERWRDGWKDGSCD
Ecoli rRNA inh OD600 = second read-out of Ecoli rRNA inh, no call of its own (marks repeat the call); OD600 change, %; measured here: OD600 growth;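 optical density of the mix in the first replicate; 0 = DMSO median and -100 = no signal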
Ecoli rRNA inh RFP = also measured in Ecoli rRNA inh; calls as there; RFP signal change, %; measured here: RFP humanized mutant strains;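 first replicate; 0 = DMSO median and -100 = no signal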
Active calls of the source: *; i = inactive; ? = inconclusive; / = not tested or not shown. Not all compounds are listed. The share of hits here may be higher or lower than overall.

1) CCCc1cc(=O)[nH]c(SCC(=O)N(CCOC)c2c(N)n(Cc3ccccc3)c(=O)[nH]c2=O)n1
2) COCC(=O)N(C)C[C@H]1Oc2ncc(-c3ccccc3C)cc2C(=O)N([C@@H](C)CO)C[C@@H]1C
3) CCN(C[C@@H]1[C@@H](c2ccc(C3=CCCCC3)cc2)[C@@H](CO)N1CC1CC1)C(C)=O
4) Cc1ncc([N+](=O)[O-])n1CCOC(=O)C12CC3CC(CC(C3)C1)C2
5) CN(CCOc1ccccc1)C(=O)C1CCC(=O)N(CCN2CCOCC2)C1 (centres undefined)
6) O=S1(=O)CC(N2CCN(CC3CC3)CC2)CN1C1CCCCC1 (centres undefined)
7) Cc1ccccc1CN(C)CC(=O)Nc1ccccc1Oc1ccccc1
8) O=C(CCN1CCc2ccccc2CC1)c1ccc2c(c1)OCCO2
assay / compound	1	2	3	4	5	6	7	8
Ecoli rRNA inh	14.4	-0.3	2.4	-10.0	7.3	5.9	-16.1	/
Ecoli rRNA inh OD600	17.6	2.6	1.2	-9.8	11.1	9.8	-25.2	/
Ecoli rRNA inh RFP	-2.1	-1.4	6.2	3.5	1.4	0.2	-28.4	/
Vif TR-FRET	1.7%	/	/	-9.1%	/	/	1.9%	-7.3%
FGF22 binding	i	i	i	i	i	i	i	/
HNF4A DNA FP	-6.5	/	/	0.8	0.2	-0.8	-0.2	-2.5
AF4-AF9 inh	-2.0	-1.9	8.5	0.1	-1.1	-3.5	3.3	/
Ecoli growth	0.7	/	/	0.675	0.664	/	0.692	0.642
ALR inh	/	/	/	-1.6	/	/	-5.8	26.6

9) Cc1noc(C)c1S(=O)(=O)Nc1ccc2c(c1)C(=O)N([C@H](C)CO)C[C@@H](C)[C@@H](CN(C)C(=O)Nc1ccccc1)OCCCC[C@@H](C)O2
10) O=C(CN1C(=O)c2ccccc2C1=O)OCC(=O)c1ccc(F)cc1
11) COc1ccc(OC)c(/C=C/C(=O)OCC(=O)NCc2cccs2)c1
12) CC(=O)c1cccc(N=C2NC(=O)C(CO)(CO)S2)c1
13) O=C(O)CSc1nnc(C2COc3ccccc3O2)n1-c1ccccc1 (centres undefined)
14) C[C@H](CO)N1C[C@H](C)[C@@H](CN(C)CC2CC2)Oc2ccc(NS(=O)(=O)c3cn(C)cn3)cc2C1=O
15) Cc1ccc(NCC(=O)c2ccccc2)cc1Cl
16) COc1ccc(S(=O)(=O)N(C)C[C@H]2OCc3ccccc3-c3ccccc3C(=O)N([C@@H](C)CO)C[C@H]2C)cc1
assay / compound	9	10	11	12	13	14	15	16
Ecoli rRNA inh	2.3	16.3	-6.1	/	/	6.0	/	-1.7
Ecoli rRNA inh OD600	-6.2	8.8	-2.6	/	/	8.0	/	-11.0
Ecoli rRNA inh RFP	2.0	1.1	1.2	/	/	-2.4	/	5.8
Vif TR-FRET	/	6.6%	1.2%	-5.4%	4.6%	/	2.9%	/
FGF22 binding	i	i	i	/	/	i	/	i
HNF4A DNA FP	/	1.6	-0.6	-0.7	3.5	/	-0.1	/
AF4-AF9 inh	-0.4	0.0	-0.8	/	/	-2.0	/	2.1
Ecoli growth	/	0.671	0.626	0.692	0.725	/	0.676	/
ALR inh	/	-1.1	-0.2	-10.3	-8.6	/	-3.6	/

Ordered by count of non-hydrogen atoms (smallest number first): some entries from above.
15) Cc1ccc(NCC(=O)c2ccccc2)cc1Cl
14) C[C@H](CO)N1C[C@H](C)[C@@H](CN(C)CC2CC2)Oc2ccc(NS(=O)(=O)c3cn(C)cn3)cc2C1=O
9) Cc1noc(C)c1S(=O)(=O)Nc1ccc2c(c1)C(=O)N([C@H](C)CO)C[C@@H](C)[C@@H](CN(C)C(=O)Nc1ccccc1)OCCCC[C@@H](C)O2
assay / compound	15	14	9
Ecoli rRNA inh	/	6.0	2.3
Ecoli rRNA inh OD600	/	8.0	-6.2
Ecoli rRNA inh RFP	/	-2.4	2.0
Vif TR-FRET	2.9%	/	/
FGF22 binding	/	i	i
HNF4A DNA FP	-0.1	/	/
AF4-AF9 inh	/	-2.0	-0.4
Ecoli growth	0.676	/	/
ALR inh	-3.6	/	/

(continued)
17) Cc1cc(C)c2nc(-c3ccccn3)cc(C(=O)NCc3cc(C)n(C)n3)c2c1
18) COC(=O)N/N=C/c1c(C)cc(C)cc1C
19) Cc1noc(C)c1COc1cccc(C(=O)Oc2ccc3c(c2)OCO3)c1
20) CCCOc1ccc(/C=N/Nc2ccccn2)cc1OC
21) COC(=O)c1cc2c(c3c4cc(OC)ccc4n(S(=O)(=O)c4ccc(OC)cc4)c13)C(=O)N(Cc1ccccc1OC)C2
22) CC(=O)c1cn(CC(=O)Nc2ccc(C)cc2)c2ccccc12
23) CC1CN(c2oc(Cc3cccc4ccccc34)nc2C#N)CC(C)O1 (centres undefined)
24) CCCC(CCC(=O)Nc1nccs1)C(=O)O (centres undefined)
assay / compound	17	18	19	20	21	22	23	24
Ecoli rRNA inh	2.3	/	-35.2*	20.2	7.7	/	/	13.7
Ecoli rRNA inh OD600	5.3	/	-19.8*	8.0	14.7	/	/	13.4
Ecoli rRNA inh RFP	3.9	/	-5.1*	3.0	32.1	/	/	-0.4
Vif TR-FRET	-12.9%	-0.1%	1.3%	/	/	10.6%	-6.3%	21.5%
FGF22 binding	i	/	/	i	i	/	/	i
HNF4A DNA FP	2.5	-0.4	-0.1	1.8	/	0.1	1.2	-3.3
AF4-AF9 inh	-3.4	/	/	1.4	-1.3	/	/	-1.4
Ecoli growth	0.725	/	0.709	/	/	0.718	0.653	0.636
ALR inh	-4.6	2.0	-20.4	3.6	/	/	-8.2	0.6

25) Cc1cccc(S(=O)(=O)N2CC[C@@H]3[C@H](CO)Nc4ccc(C#Cc5cccc(F)c5)cc4[C@@H]32)c1
26) Cc1ccc(NC(=O)COC(=O)c2cccc3c(=O)c(C)c(-c4ccccc4)oc23)cc1
27) Cc1ccc(CSc2nn3c(=O)c(C)nnc3s2)cc1
28) CC=Cc1ccc2n(c1=O)C[C@@H]1[C@@H](CO)[C@H](C(=O)NCc3ccccc3)N(C)[C@H]21 (mixture of isomers)
29) N#Cc1ccc(C(c2nnnn2CCc2ccccc2)N2CCCCCC2)cc1 (centres undefined)
30) CC(NC(=O)COC(=O)c1ccc(OCC2CCCO2)cc1)c1ccccc1Cl (centres undefined)
31) Nc1ncnc2c1ncn2[C@@H]1O[C@H](CNCC(O)CO)[C@@H](O)[C@H]1O (some centres undefined)
32) C[C@H](CO)N1C[C@H](C)[C@@H](CN(C)C(=O)c2ccc(F)cc2)Oc2cc(C3=CCCCC3)ccc2S1(=O)=O
assay / compound	25	26	27	28	29	30	31	32
Ecoli rRNA inh	0.8	-3.5	/	2.5	/	1.7	3.9	-9.3
Ecoli rRNA inh OD600	9.1	1.8	/	6.1	/	-6.8	6.7	-21.6
Ecoli rRNA inh RFP	-3.5	-1.9	/	1.6	/	-0.2	-1.8	9.4
Vif TR-FRET	/	-1.1%	/	/	7.1%	-3.4%	2.7%	/
FGF22 binding	i	i	/	i	/	i	i	i
HNF4A DNA FP	/	-0.1	-6.3	/	-1.0	3.4	-0.9	/
AF4-AF9 inh	-2.1	2.6	/	-1.7	/	1.6	-0.2	5.5
Ecoli growth	/	0.739	0.7	/	0.692	0.684	0.715	/
ALR inh	/	-11.7	-9.0	/	4.5	-2.7	/	/

33) COc1ccc2nc3oc(C(=O)Nc4ccc(OC)c(OC)c4)cc3cc2c1
34) Cc1ccc(S(=O)(=O)Nc2ccc3c(c2)C(=O)N([C@@H](C)CO)C[C@H](C)[C@H](CN(C)Cc2ccc4c(c2)OCO4)OCCCC[C@@H](C)O3)cc1
35) CCCCCCn1c(=O)c(Cc2ccccc2)c(O)c2ccccc21
36) CN(C)S(=O)(=O)c1ccc(S(=O)(=O)NCc2cccs2)cc1
37) O=C1CCCN1c1ccc(C(=O)N(Cc2nnc(-c3ccccc3Cl)o2)C2CC2)cc1
38) COc1ccc(COC(=O)C2=C(C)NC(=O)NC2c2ccc(F)cc2)cc1 (centres undefined)
39) C[C@H](CO)N1C[C@H](C)[C@H](CN(C)C(=O)Nc2cccc(F)c2)OCc2cn(nn2)CCCC1=O
40) COC(=O)c1cccc(Cn2c(Cl)c(/C=N/NC(=O)c3ccccc3Cl)sc2=O)c1
assay / compound	33	34	35	36	37	38	39	40
Ecoli rRNA inh	/	3.6	/	4.7	5.4	-15.3	1.6	/
Ecoli rRNA inh OD600	/	-10.8	/	9.9	13.3	-12.9	1.9	/
Ecoli rRNA inh RFP	/	13.3	/	0.4	-0.4	0.7	-1.3	/
Vif TR-FRET	-5.2%	/	-2.3%	-4.4%	0.4%	/	/	4.7%
FGF22 binding	/	i	i	i	i	i	i	/
HNF4A DNA FP	0.3	/	-3.6	0.9	4.5	-1.6	/	2.4
AF4-AF9 inh	/	5.2	-1.7	-7.6	-8.8	-2.0	-6.8	/
Ecoli growth	0.763	/	0.727	/	0.662	0.641	/	/
ALR inh	/	/	6.2	/	-3.3	/	/	-2.4

41) COc1cnc(-c2ccccc2)nc1Oc1ccc(C(C)(C)C)cc1
42) CN1C(=O)c2ccc(S(=O)(=O)c3ccc(C(=O)O)cc3)cc2C1=O
43) CCCN(CC1CC1)S(=O)(=O)c1ccc(-n2cnnn2)c(OC)c1
44) COC(=O)Cc1c(-c2[nH]c3ccccc3c2CC(=O)OC)[nH]c2ccccc12
45) CC1(C)Nc2ccccc2C(=O)N1NC(=O)c1ccccc1
46) Cn1c(SCC(=O)N2CCN(c3cccc(Cl)c3)CC2)nnc1-c1ccncc1
47) O=C(O)/C(=C\c1ccc2ccccc2c1)c1cccc2ccccc12
48) O=C(Cn1nc(C(=O)O)c2ccccc2c1=O)Nc1cccc(S(=O)(=O)N2CCOCC2)c1
49) COc1ccc(CN(C2CCCC2)S(=O)(=O)c2cc(Br)ccc2Br)c(OC)c1
50) O=C(NCc1ccncc1)C1CCCCC1
51) CC(C)CNC(=O)C1CCN(c2ccc(S(=O)(=O)N3CCOCC3)cc2[N+](=O)[O-])CC1
assay / compound	41	42	43	44	45	46	47	48	49	50	51
Ecoli rRNA inh	/	1.0	/	-12.4	1.0	/	-47.0*	0.2	20.2	/	7.6
Ecoli rRNA inh OD600	/	-5.9	/	-4.5	3.9	/	-32.2*	3.0	11.7	/	-6.7
Ecoli rRNA inh RFP	/	4.9	/	34.1	-2.1	/	-9.0*	-0.9	1.7	/	-3.5
Vif TR-FRET	0.3%	32.1%	0.6%	/	2.0%	2.1%	/	/	/	?	/
FGF22 binding	/	i	/	i	i	/	i	i	i	/	i
HNF4A DNA FP	-0.8	2.4	-0.5	0.5	-6.0	-1.8	-2.5	-1.8	/	-1.7	2.1
AF4-AF9 inh	/	-4.7	/	0.6	-8.5	/	4.9	-14.5	0.8	/	1.1
Ecoli growth	0.693	0.71	0.651	/	0.605	0.705	0.668	0.679	/	0.687	0.69
ALR inh	0.5	0.3	-3.7	/	1.7	0.8	-6.2	-0.2	/	-0.1	-1.0

Source: PubChem (several laboratories)
